Marburg entry inh: qHTS for inhibitors of binding or entry into cells for Marburg Virus; Marburg virus pseudotyped entry inhibition, cell reporter; control for the full effect not named in the record; about a third of the inactives were read at about 46 µM; Potency, µM (doses to about 37.8 µM), without a hit: at the highest dose activity change, negative = inhibition, usual class: inhibitors; 300,000 tested, 1.8% active; AID 540276, 2011; active = well fitted inhibition curve with a large enough effect; inconclusive = small, poorly fitted or top-dose-only effect, or effect the other way; inactive = flat fitted curve, though single readings scatter; tested in HEK293 cells; about a fifth of its hits are not listed in these tables; further: on the % scale 0 is the no-effect control and ±100 the full control effect; luciferase read-out
Cruzain inh Det: qHTS Assay for Promiscuous and Specific Inhibitors of Cruzain (with detergent); Potency, µM, without a hit: max response, negative = inhibition, usual class: inhibitors; 200,000 tested, 0.43% active; Cruzipain (Trypanosoma cruzi), P25779; purified cruzain, Z-FR-AMC fluorescence, 0.01% Triton; active means well fitted curve in the direction sought with a large enough effect; inconclusive means small, poorly fitted or top-dose-only effect, or another doubt; inactive means no such curve, though single readings can be large; an effect the other way counts as inactive or inconclusive;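 further: plate controls were neutral wells for no effect and buffer without enzyme for full effect; nearly all actives have a fitted effect of over 40% in size; top concentration of the series not given in the record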
Target sequence (P25779 123-467 limits assumed): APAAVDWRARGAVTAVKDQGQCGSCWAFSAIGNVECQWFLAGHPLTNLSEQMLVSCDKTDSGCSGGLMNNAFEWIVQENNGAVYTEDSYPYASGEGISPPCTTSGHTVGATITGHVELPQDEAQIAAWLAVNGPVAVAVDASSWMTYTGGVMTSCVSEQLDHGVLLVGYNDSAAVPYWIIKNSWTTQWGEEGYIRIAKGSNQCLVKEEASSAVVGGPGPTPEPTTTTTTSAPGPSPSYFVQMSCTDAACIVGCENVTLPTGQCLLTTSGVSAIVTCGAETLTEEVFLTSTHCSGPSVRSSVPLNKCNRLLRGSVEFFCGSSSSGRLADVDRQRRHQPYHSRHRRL
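In this qHTS format, compounds are incubated with 1.5 nM cruzain for 15 min at room temperature before 2 uM Z-FR-AMC is added. Release of AMC is followed at 360/450 nm, and progress is taken as the 60 s fluorescence difference.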
StopGo reporter: High Throughput Screening for Foot and Mouth Disease Virus Antivirals; 410,000 tested, 1.2% active; human cells with a luciferase reporter of 2A StopGo recoding; control for the full effect not named in the record; AID 1159524, 2015; Potency, µM (series often up to 57.9 µM), for the others: top-dose signal change, negative = less light; active = well fitted falling curve with a large enough effect; inconclusive = small, poorly fitted or top-dose-only effect; inactive = no such curve, though single readings can be large or run the other way; tested in HEK293T cells; further: on the % scale 0 is the no-effect control and ±100 the full control effect; nearly all actives have a fitted effect of over 45% in size; luciferase light after 4 h
SARS PLpro yeast: qHTS of Yeast-based Assay for SARS-CoV PLP. AID 485353, 2010. 330,000 tested, 0.19% active. S. cerevisiae expressing SARS-CoV PLpro, growth rescue; control for the full effect not named in the record. Potency, µM (titrated, usually from 32.9 µM), for the others: at the top dose activity, positive = growth rescue; further: 0% is about no effect; nearly all actives have a fitted effect of over 55% in size; growth read by luminescence after 48 h
Cruzain inh noDet: qHTS Assay for Promiscuous and Specific Inhibitors of Cruzain (without detergent). Cruzipain (Trypanosoma cruzi), P25779. 200,000 tested, 2.3% active. Potency, µM, inactives show max response, negative = inhibition, hits mostly inhibitors. AID 1476, 2009. purified cruzain, Z-FR-AMC fluorescence, no detergent; active means well fitted curve in the direction sought with a large enough effect; inconclusive means small, poorly fitted or top-dose-only effect, or another doubt; inactive means no such curve, though single readings can be large; an effect the other way counts as inactive or inconclusive;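 further: plate controls were enzyme without inhibitor for no effect and buffer without enzyme for full effect; nearly all actives have a fitted effect of over 40% in size; top concentration of the series not given in the record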
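Detergent-free condition (0.00005% Triton X-100) in acetate buffer pH 5.5 with DTT. 1.5 nM enzyme and compound were pre-mixed 15 min, then 2 uM Z-FR-AMC substrate added; reaction progress from fluorescence change between first and third reads (60 s).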
Lassa entry inh: qHTS for Inhibitors of binding or entry into cells for Lassa Virus. Lassa virus pseudotype entry inhibition, cell reporter; control for the full effect not named in the record. Potency, µM (top dose mostly 37.9 µM), inactives show top-dose activity change, negative = inhibition, most hits filed as inhibitors. 300,000 tested, 1.2% active; active means well fitted inhibition curve with a large enough effect; inconclusive means small, poorly fitted or top-dose-only effect, or effect the other way; inactive means flat fitted curve, though single readings scatter; tested in HEK293 cells; further: on the % scale 0 is the no-effect control and ±100 the full control effect; nearly all actives have a fitted effect of over 50% in size; luciferase read-out
RE007 growth inh: qHTS Assay for Inhibitors of the HIV-1 protein Vpr | S. pombe RE007 Vpr strain, BacTiter-Glo ATP luminescence, 24 h; control for the full effect not named in the record | Potency, µM (series often up to 92.2 µM), inactives show at the top dose activity change, negative = less growth | 360,000 tested, 0.21% active; active = well fitted falling curve with a large enough effect; inconclusive = small, poorly fitted or top-dose-only effect; inactive = no such curve, though single readings can be large or run the other way;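 further: on the % scale 0 is the no-effect control and ±100 the full control effect; nearly all actives have a fitted effect of over 50% in size; the assay follows cell death caused by Vpr and the record does not say whether a fall means rescue or toxicity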
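Fission yeast RE007 carrying one integrated HIV-1 vpr copy, seeded at OD 0.01 in PMG+AL medium with 23 nL pinned compound. Grown 24 h at 30 degrees; viability read by BacTiter-Glo luminescence after 5 min.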
NS1 inh: qHTS Assay for Inhibitors of Influenza NS1 Protein Function; S. cerevisiae slowed by influenza A NS1, growth recovery by OD600; Potency, µM (series often up to 46.1 µM), for the others: top-dose activity, positive = more growth; 270,000 tested, 0.4% active; AID 2326, 2010; further: actives are rising curves; nearly all actives have a fitted effect of over 50% in size
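OD600 was taken as the measure of yeast growth restored by compound in an NS1-expressing S. cerevisiae strain. Cells had been washed out of glucose medium and diluted 1:100 into galactose -URA medium, pH 6.0.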
* hit, by the source's call; ? = inconclusive; · = not tested or not shown; & = joins results of further samples; [ ] = another dose, or the depositor's remark. Unless noted, the call rests on the fitted dose curve; in most records, active means well fitted rising curve with a large enough effect; inconclusive means small, poorly fitted or top-dose-only effect; inactive means no such curve, though single readings can be large or run the other way. Potency means the concentration at half of the fitted maximal effect.

SMILES	Marburg entry inh	Cruzain inh Det	StopGo reporter	SARS PLpro yeast	Cruzain inh noDet	Lassa entry inh	RE007 growth inh	NS1 inh
CC(=O)c1ccc(S(=O)(=O)Nc2cccc(-n3cnnn3)c2)cc1	·	·	8%	0%	·	·	5%	-5%
Cc1cc(OCc2ccc([N+](=O)[O-])cc2)c2c3c(c(=O)oc2c1)CCCC3	-28%	-1.1%	-4%	-1%	13µM*	?	-2%	5%
CCc1ccc(CN2CCC(n3nccc3NC(=O)Cc3ccccc3)CC2)o1	?	·	-26%	-4%	·	-1%	3%	0%
COc1ccc(OC)c(C(=O)NC(CC(N)=O)c2ccc(N3CCC(Cc4ccccc4)CC3)c([N+](=O)[O-])c2)c1 (stereo not drawn)	·	·	-24%	3%	·	·	3%	?
CCOc1ccc(NC(=S)NCc2ccc3c(c2)OCO3)cc1	-8%[46.1 µM]	·	58%[activator]	-2%	·	4%	18%	8%
O=C(CSc1n[nH]c(=O)n1-c1ccc2c(c1)OCCO2)Nc1ccccc1	2%[46.1 µM]	·	4%	1%	·	-4%	8%	-7%
Cc1ccc2c(CNCc3ccco3)cc(=O)oc2c1	13%	-5.4%	43%[activator]	-3%	-15%	8%	1%	8%
CCCCn1c(O)c(C=NCc2ccc3c(c2)OCO3)c(=O)[nH]c1=O	6%	·	-17%	0%	·	-16%	-13%	-1%
CCN(Cc1ccc(OC)c(COC)c1)CC1CCCN(CCc2cccc(F)c2)C1 (stereo not drawn)	·	·	-9%	-4%	·	·	-24%	6%
CCCn1c(SCC(=O)Nc2ccccc2N2CCOCC2)nc2c1c(=O)n(C)c(=O)n2C	-18%[46.1 µM]	-4.5%	-16%	13%	?	7%	-1%	?
CC1CCN(c2nc3c(S(=O)(=O)c4cccc(Cl)c4)nnn3c3ccsc23)CC1	·	-0.6%	?	·	2%	12%[46.1 µM]	·	·
CCn1c(Cc2ccc(OC)cc2)nnc1SCc1nc2ccccc2c(=O)[nH]1	-29%[46.1 µM]	·	20%	2%	·	-2%	40%	·
COc1ccc(-c2noc(-c3ccc(N4CCN(c5ccccc5OC)CC4)c([N+](=O)[O-])c3)n2)cc1	-19%[46.1 µM]	-0.4%	-6%	·	-4%	15%[46.1 µM]	·	·
CCSS(=O)(=O)c1cccc2cccnc12	-19%[46.1 µM]	·	?	-4%	·	-44%	5.6µM*	-96%
CCN(CC)Cc1c(O)ccc2c(=O)c(-c3ccccc3OC)coc12	22%	·	-7%	2%	·	?	-2%	4%
COC(=O)COc1cccc(-n2cnnn2)c1	9%	1.5%	-12%	3%	8%	9%	9%	-2%
COc1cc2cc(CN(CCO)S(=O)(=O)c3ccccc3)c(=O)[nH]c2cc1OC	2%	2.0%	-17%	8%	0%	7%	-1%[3.69 µM]	6%
C=CCN1CCN(C(CC(C)C)c2nnnn2CCOC)CC1 (stereo not drawn)	12%	0.9%	-1%	-1%	1%	0%	9%	-22%
CCOC(=O)c1cc(NC(=O)C2C3CCC(O3)C2C(=O)O)cc(C(=O)OCC)c1 (stereo not drawn)	1%	3.1%	-17%	4%	6%	-20%[14.3 µM]	-26%	2%
COc1cccc(C(=O)n2cnnc2N)c1OC	9%	1.0%	-4%	6%	-5%	-10%	-9%	-1%
CCOC(=O)CNC(=O)CSc1nc(-c2ccc(C)cc2)ns1	?	·	17%	1%	·	?	1%	·
O=C(C1=C[C@H](c2ccc(C(F)(F)F)cc2)C[C@H](OCCCCO)O1)N1CCN(Cc2ccccc2)CC1	·	·	-19%	-1%	·	·	4%	-2%
COc1cc(OC)c2c(-c3cccc(/C=C/c4ccc(F)cc4)c3)cc(=O)oc2c1	·	3.4%	63%[activator]	16%	10µM*	·	?	·
CN(C)/N=C1\C(=O)N(CN2CCN(c3ccccc3)CC2)c2ccccc21	2%	·	-17%	0%	·	-4%	9%	·
COCC1CCCCC1OS(N)(=O)=O (stereo not drawn)	·	·	-15%	-4%	·	·	11%	2%
O=C(Nc1ccc(Br)cc1)c1ccc(Br)c(S(=O)(=O)Nc2cccnc2)c1	?	-2.6%	20%	8%	-1%	-1%	13%	-3%
OCCC1CN(Cc2nc3ccccc3s2)CCN1CCc1ccccc1 (stereo not drawn)	-29%[46.1 µM]	·	-2%	-4%	·	10%	-5%	5%
CC(=O)Nc1c(Cl)n(C(C)=O)c2ccccc12	?	0.2%	0%	0%	-4%	9%	-5%	-14%
COc1ccc(NC(=O)Cn2c(=O)oc3cc(S(=O)(=O)N4CCCCCC4)ccc32)cc1OC	·	-4.1%	-27%	·	?	?	·	·
CC1=CC2=NC(=O)CC(C)(C(=O)N(CC(=O)NC3CCCC3)Cc3ccccc3)N2C=C1 (stereo not drawn)	?	·	1%	-1%	·	0%	-20%	2%
Cc1cc2cc(CNC(=O)c3ccc(Br)o3)ccc2n1C	·	·	104%[activator]	0%	·	·	-16%	-1%
CN(C(=O)CN(C)S(=O)(=O)c1ccc(F)cc1)c1c(N)n(Cc2ccccc2)c(=O)[nH]c1=O	12%	·	-9%	26%	·	10%	7%	·
CC(=O)N1CCc2cc(S(=O)(=O)CCC(=O)N3CCN(c4ccccc4F)CC3)ccc21	5%&5%[46.1 µM]	-3.6%	0%&-18%	-1%	-16%	-3%[46.1 µM]	-1%	-10%
O=C(c1cc(N2CCCCC2)nc2ccccc12)N1CCOCC1	5%&5%	-2.7%	0%	-4%	-11%	-28%[14.3 µM]	4%	9%
CCc1ccc(-c2nc(SCC(=O)N(C)C3CCS(=O)(=O)C3)n[nH]2)cc1 (stereo not drawn)	7%	·	2%	1%	·	-1%	2%	·
Clc1ccc(/C=C/c2nc3ccccc3[nH]2)c(Cl)c1	?	-7.5%	-85%	-46%	?	10µM*	25µM*	-165%
Cc1ccc(N(CC(=O)NCCc2ccccc2)S(=O)(=O)N(C)C)cc1	-24%[46.1 µM]	-0.1%	-15%	·	-10%	-17%[46.1 µM]	·	·
COc1cc(Cl)ccc1OCc1cc(C(=O)N2C[C@]3(C)C[C@H]2CC(C)(C)C3)no1	?	·	13%	-12%	·	?	-12%	11%
COc1ccc(-c2cc(C)no2)cc1S(=O)(=O)NCc1ccc(OC(C)C)cc1	·	4.8%	3%&-3%	0%	-15%	7%[46.1 µM]	-7%	-12%
O=C(CSc1nn(-c2ccc(Cl)cc2)c(=S)s1)N1CCN(C(=O)c2ccco2)CC1	7%&-8%	-3.5%	1%	-2%	?	-10%	0%	-55%
Cc1nc(-c2ccc(NS(C)(=O)=O)cc2)cs1	?	2.2%	11%	2%	-7%	7%	19%	5%
Cc1nc(CS(=O)(=O)c2ccccc2)cc(Sc2ccc(Cl)cc2Cl)n1	?	-3.5%	-14%	-2%	12%	0%	0%	-13%
Cn1c(Cn2c(=O)sc3ccccc32)nnc1SCC(=O)Nc1cccc(Cl)c1	·	-2.1%	-4%	5%	2%	·	4%	-5%
Nc1nc(NCC2CCCO2)nc(Nc2ccccc2)c1[N+](=O)[O-] (stereo not drawn)	0%	-5.7%	0%	17%	-22%	-18%	0%	5%
Cc1nn(CCOc2ccccc2)c(=O)n1-c1ccccc1F	1%	3.3%	49%[activator]	0%	-6%	5%	6%	12%
CC(=O)NC(c1ccccc1)c1cc([N+](=O)[O-])c2cccnc2c1O (stereo not drawn)	?	·	-19%	2%	·	?	10%	·
COCCNC(=O)c1onc(CSc2ccc(F)cc2)c1C(=O)NCCOC	0%	·	-18%	0%	·	·	6%	5%
O=c1c2c3c(sc2[nH]c(=S)n1Cc1ccco1)CCC3	·	·	1%	-1%	·	·	-6%	5%
COC(=O)c1sccc1NC(=O)CSc1ccc(Cl)cc1	-25%	1.9%	-10%	-9%	2%	-12%	0%	-37%
CCN(CC)Cc1c(O)c(Cl)cc2c(C)cc(=O)oc12	16%[46.1 µM]	·	-7%	-1%	·	19%[46.1 µM]	-20%	·

Next results follow:
SMILES	Marburg entry inh	Cruzain inh Det	StopGo reporter	SARS PLpro yeast	Cruzain inh noDet	Lassa entry inh	RE007 growth inh	NS1 inh
O=C(Cn1cnc2sc3c(c2c1=O)CCCC3)NCC(=O)Nc1c(F)cccc1F	·	·	-14%	3%	·	·	3%	?
O=C(c1cccs1)N1CCN=C1SCc1ccccc1F	-25%	·	3%	1%	·	23%	1%	·
CN(Cc1ccc2c(c1)OCCO2)C(=O)CSc1ncnc2sccc12	-34%	·	40µM*	-11%	·	-29%	2%	·
CCOC(=O)CN(c1cc([N+](=O)[O-])ccc1OC)S(C)(=O)=O	?	·	-11%	0%	·	-1%	-3%	7%
S=C1SCN(Cc2ccccc2)CN1Cc1ccccc1	·	·	-16%	-12%	·	·	6%	-66%
CCCn1c(O)c(N=NC(=O)CNC(=O)Cc2ccc(OC)cc2)c2ccccc21	-2%[46.1 µM]	·	-3%	1%	·	-12%[46.1 µM]	-3%	-1%
O=C(NNS(=O)(=O)c1ccc([N+](=O)[O-])cc1)c1ccccc1	2%	·	50%[activator]	·	·	22%[46.1 µM]	4%	·
COc1ccc(NC(=O)CC2C(=O)N(c3ccc(Cl)cc3)C(=S)N2CCc2ccncc2)cc1 (stereo not drawn)	?	-3.6%	-14%	-1%	-1%	-13%	-7%	22%
COc1ccc(CCNC(=O)C2CCC(=O)N(C3CCCCCC3)C2)cc1 (stereo not drawn)	5%[46.1 µM]	·	-3%	1%	·	15%[46.1 µM]	-9%	-7%
CC(C)OC(=O)c1cc2c(ccn2C)n1CC(=O)N(Cc1ccccc1)c1ccccc1	2.5µM*	-10%	-21%	5%	-5%	3.2µM*	25%	11µM*
Cc1ccc(-c2onc(C)c2C)cc1S(=O)(=O)N1CCN(c2ccccc2F)CC1	·	1.6%	?	·	-11%	19%[46.1 µM]	·	·
COc1ccc(NC(=O)/C(=C/c2ccc(OC(C)=O)c(OC)c2)NC(C)=O)cc1	-6%	-3.2%	5%	1%	5%	?	1%	-2%

Screening results deposited in PubChem by National Center for Advancing Translational Sciences (NCATS).
